Screens as filed in PubChem BioAssay.
Six1-Eya2 inh: qHTS Assay for Inhibitors of the Six1/Eya2 Interaction; AlphaScreen GST-Six1/His-Eya2 binding, biochemical; stronger effect = lower value; control for the full effect not named in the record; AID 651725, 2012; activity change, % (test concentration not listed); hit rate 0.56% among 360,000; in the data active = activity change below about -65%; inconclusive = about -30% to -65%; inactive = above about -30%; further: compound concentration not given in the record
Target sequence (O00167 whole entry, looked up): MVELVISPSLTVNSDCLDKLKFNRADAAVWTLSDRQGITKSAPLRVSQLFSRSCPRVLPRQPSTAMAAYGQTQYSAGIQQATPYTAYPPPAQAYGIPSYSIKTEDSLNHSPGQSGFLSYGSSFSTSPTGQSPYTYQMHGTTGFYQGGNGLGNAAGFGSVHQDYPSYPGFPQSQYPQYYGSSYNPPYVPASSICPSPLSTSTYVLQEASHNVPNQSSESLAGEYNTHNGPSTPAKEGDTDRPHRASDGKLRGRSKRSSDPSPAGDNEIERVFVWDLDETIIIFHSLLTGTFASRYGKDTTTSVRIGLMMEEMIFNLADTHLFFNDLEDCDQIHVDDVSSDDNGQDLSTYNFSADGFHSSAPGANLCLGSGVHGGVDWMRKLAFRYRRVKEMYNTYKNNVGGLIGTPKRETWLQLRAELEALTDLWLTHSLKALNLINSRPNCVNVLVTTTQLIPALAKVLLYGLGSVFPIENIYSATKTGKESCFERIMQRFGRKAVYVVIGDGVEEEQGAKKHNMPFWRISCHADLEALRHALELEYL
Target sequence (Q15475 whole entry, looked up): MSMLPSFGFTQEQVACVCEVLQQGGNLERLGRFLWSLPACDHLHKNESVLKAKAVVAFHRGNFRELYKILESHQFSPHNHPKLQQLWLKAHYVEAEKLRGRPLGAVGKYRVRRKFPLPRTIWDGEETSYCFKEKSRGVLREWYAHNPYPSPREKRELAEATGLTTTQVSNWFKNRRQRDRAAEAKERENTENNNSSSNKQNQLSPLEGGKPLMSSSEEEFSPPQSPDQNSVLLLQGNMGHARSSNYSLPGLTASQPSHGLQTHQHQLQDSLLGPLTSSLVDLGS
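Homogeneous AlphaScreen proximity assay pairing GST-Six1 with His-tagged Eya2 (added as 5X mix: 250 nM and 500 nM) in 50 mM Tris pH 8.0, 300 mM NaCl, 1 mM TCEP. Glutathione donor and nickel acceptor beads; 1 h, 37 °C, dark.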
CtBP-E1A inh: qHTS Assay for Inhibitors of the CtBP/E1A Interaction; CtBP / adenovirus E1A interaction (AlphaScreen); AlphaScreen GST-E1A/His-CtBP binding, 1536-well; stronger effect = lower value; control for the full effect not named in the record; activity change, % (no concentration beside the values); hit rate 0.49% among 340,000; AID 651724, 2012; in the data active means activity change below about -65%; inconclusive means about -30% to -65%; inactive means above about -30%; further: compound concentration not given in the record
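Homogeneous bead-based format: GST-tagged E1A captured on glutathione donor beads, His-tagged CtBP on nickel acceptor beads; compounds precede bead addition by 2 h at 37 °C.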
An asterisk follows results filed as active. On the % scale 0 is the no-effect control and ±100 the full control effect. An excerpt; count on the stated rates, not on these rows.

Structure | Six1-Eya2 inh | CtBP-E1A inh
Nc1[nH]c(C(=O)c2ccccc2)c(-c2ccccc2C(F)(F)F)c1C(=O)NCCc1c[nH]c2ccccc12 | -21 | -1
COC(=O)[C@@]12C[C@@H](CC(=O)NCc3cccc(C(F)(F)F)c3)C(=O)N(Cc3ccccc3)C1=CCC(C)(C)C2 | 12 | 0
CCOC(=O)[C@]12CCC=C1N(Cc1cccc3ccccc13)C(=O)[C@H](CC(=O)NCc1cccc3ccccc13)C2 | -5 | -1
O=C(Nc1ccc2c(c1)OCCO2)C1c2ccccc2OCC(=O)N1Cc1ccccn1 (stereo not given) | -10 | 1
COc1ccc(N2CCN(C(c3ccccc3)c3nnnn3C(C)(C)C)CC2)cc1 (stereo not given) | -16 | -25
C#CCNC(=O)C[C@@H]1C[C@@]2(C(=O)OC)CCCCC=C2N(CCC2=CCCCC2)C1=O | 2 | -3
CC1COc2c3ccccc3nn21 (stereo not given) | 7 | -20
O=S1(=O)N[C@@H](Cc2ccccc2)COc2cc(N3CCN(Cc4ccccc4F)CC3)ccc21 | 11 | -23
O=C(NCc1ccccc1)C(c1cccc2ccccc12)n1c(=O)c(-c2ccccc2)nc2ccccc21 (stereo not given) | 15 | -7
Cc1cccc(C)c1NC(=O)C1(C)CSCC(=O)N1CCC(C)C (stereo not given) | 10 | 3
CCCCNC(=O)C1C(c2ccc(OC)cc2)=Nc2ccccc2N1C(=O)c1ccncc1 (stereo not given) | -3 | 2
O=C(NC1CCCCC1)C1c2ccccc2OCC(=O)N1CCCN1CCOCC1 (stereo not given) | 1 | 6
CC(=O)N1Cc2cc(C(=O)NCc3cccc(F)c3)nc(-c3cccc(C4=CCCCC4)c3)c2[C@H]1CCO | 1 | -6
CCCC[C@@H]1CC2=C(C(=O)OC(C)(C)O2)[C@@H](c2ccc(Cl)cc2)O1 | 4 | 1
CCCCCCCCN1C(=O)[C@H](CC(=O)NCc2ccc(OC)c(OC)c2)C[C@@]2(C(=O)OC)CC(C)(C)CC=C12 | -16 | -15
CC(C)(C)C(c1nc2ccccc2[nH]1)n1c(-c2ccsc2)nc2ccccc21 (stereo not given) | -2 | -23
CC(C)n1c(=O)c2ccccc2n1S(C)(=O)=O | 0 | -1
COC(=O)[C@@]12C[C@@H](CC(=O)N3CCCCC3)C(=O)N(Cc3cccc4ccccc34)C1=CCC(C)(C)C2 | -16 | -3
COc1ccccc1CCn1cnc(Cc2cccc(F)c2)c1C(C)C | -16 | 0
CCCCCc1c(-c2ccc(F)cc2)ncn1CCc1ccccc1OC | -2 | -4
C#CCNC(=O)C[C@@H]1C[C@@]2(C(=O)OC)CCCCC=C2N(Cc2ccc(Cl)cc2Cl)C1=O | -6 | -12
CCC(c1nnnn1-c1ccc2c(c1)OCCO2)N1CCN(Cc2c(F)cccc2Cl)CC1 (stereo not given) | -12 | -15
CCOC(=O)c1cc(-c2ccc(N3C(c4ccsc4)=Cc4ccccc4C3CC(C)=O)cc2)cc([N+](=O)[O-])c1 (stereo not given) | 9 | -24
CCC(C)[C@H]1CNC(=O)C(=O)N1CCc1cccc(F)c1 (stereo not given in full) | 1 | -1
CCCCCCCCN1C(=O)[C@H](CC(=O)N2CCN(C(=O)C3CC3)CC2)C[C@@]2(C(=O)OC)CC(C)(C)CC=C12 | -5 | -14
CC(C)n1c(=O)c2ccccc2n1CC(=O)N1CCOCC1 | -3 | 5
CN1CCN(C2CN(Cc3cn(Cc4cccc(C(F)(F)F)c4)nn3)S(=O)(=O)C2)CC1 (stereo not given) | -2 | 3
Cc1ccc(S(=O)(=O)N2[C@@H](Cc3ccccc3)CO[C@H]2CC(=O)c2cccc3ccccc23)cc1 | 7 | -23
C#CCNC(=O)C[C@@H]1C[C@@]2(C(=O)OC)CC(C)(C)CC=C2N(CCc2ccc(OC)c(OC)c2)C1=O | 0 | -7
O=C(N[C@H]1CC[C@H](CCNS(=O)(=O)c2ccc(Cl)cc2)O[C@@H]1CO)c1cccc(F)c1 | 10 | 0
CCOC(=O)[C@]12CCC=C1N(Cc1ccc3c(c1)OCO3)C(=O)[C@H](CC(=O)NCc1ccc(C)o1)C2 | -8 | -24
CCC(=O)Nc1ccc2c(c1)OC[C@@H](C)N(Cc1ccccc1F)C[C@@H](C)[C@@H](OC)CN(C)C2=O | 4 | 2
CCOC(=O)[C@]12CCC=C1N(Cc1cccc3ccccc13)C(=O)[C@H](CC(=O)NCCC(C)C)C2 | -8 | 3
COc1cccc(C(C(=O)NCc2ccccc2)N2CCN(c3cccc(C)c3C)CC2)c1OC (stereo not given) | -7 | -4
O=C(Nc1c(-c2ccccc2)[nH][nH]c1=O)c1ccccc1 | 7 | -12
COc1ccc(C(C(=O)Nc2ccc(F)cc2)N2CCN(C(=O)c3ccco3)CC2)cc1 (stereo not given) | 13 | 23

Seven entries from above, with two lines to a compound:
Fields – Six1-Eya2 inh | CtBP-E1A inh
- CCCCCCCCN1C(=O)[C@H](CC(=O)N2CCN(C(=O)C3CC3)CC2)C[C@@]2(C(=O)OC)CC(C)(C)CC=C12
 : -5 | -14
- O=C(N[C@H]1CC[C@H](CCNS(=O)(=O)c2ccc(Cl)cc2)O[C@@H]1CO)c1cccc(F)c1
 : 10 | 0
- CCC(=O)Nc1ccc2c(c1)OC[C@@H](C)N(Cc1ccccc1F)C[C@@H](C)[C@@H](OC)CN(C)C2=O
 : 4 | 2
- C#CCNC(=O)C[C@@H]1C[C@@]2(C(=O)OC)CC(C)(C)CC=C2N(CCc2ccc(OC)c(OC)c2)C1=O
 : 0 | -7
- COc1cccc(C(C(=O)NCc2ccccc2)N2CCN(c3cccc(C)c3C)CC2)c1OC (stereo not given)
 : -7 | -4
- CCOC(=O)[C@]12CCC=C1N(Cc1cccc3ccccc13)C(=O)[C@H](CC(=O)NCCC(C)C)C2
 : -8 | 3
- CCOC(=O)[C@]12CCC=C1N(Cc1ccc3c(c1)OCO3)C(=O)[C@H](CC(=O)NCc1ccc(C)o1)C2
 : -8 | -24

Further compounds follow.
Structure | Six1-Eya2 inh | CtBP-E1A inh
O=c1[nH][nH]c2c1[C@H](c1ccc(F)cc1)O[C@H](C1CCCCC1)C2 | 0 | 5
CC(C)(C)CNC(=O)c1cc2c(Br)ccc(Br)c2nc1N | -2 | 3
CCOC(=O)[C@]12CCCC=C1N(Cc1cccc3ccccc13)C(=O)[C@H](CC(=O)N1CCN(C(=O)c3ccco3)CC1)C2 | 11 | 23
CCCCNC(=O)c1nc(C2CCN(S(=O)(=O)c3c(OC)cccc3OC)CC2)oc1-c1ccccc1 | -11 | -8
COCCCn1cc(CN(C)C2CN(Cc3cn(CCCOC)nn3)S(=O)(=O)C2)nn1 (stereo not given) | 18 | -21
Cc1ccc(Cc2c(-c3ccccc3)nc3c(C)cc(Br)cn23)cc1 | 6 | -5
O=C1NC[C@@H](CCCCN2CCN(CCC3CCCCC3)C(=O)C2=O)N(CC2CCCCC2)C1=O | -2 | -1
Cc1cc(C)n2c(Nc3ccc4c(c3)OCCO4)c(C3CC3)nc2n1 | -3 | 1
CC1(c2nnnn2Cc2ccccc2)CCC(=O)N1Cc1cccc(C(F)(F)F)c1 (stereo not given) | 9 | 0
COC(=O)[C@]12CCCCC=C1N(Cc1cccc3ccccc13)C(=O)[C@H](CC(=O)NCCc1ccccc1OC)C2 | 0 | -25
COc1ccc(C(C(=O)NC(C)(C)C)n2c(COc3ccc(C)cc3)nc3ccccc32)cc1 (stereo not given) | -10 | 3
CCCCn1nnnc1C1(C)CCC(=O)N1CCc1ccccc1F (stereo not given) | 5 | 3

Three entries already listed, arranged by the number in CtBP-E1A inh, largest number first:
Structure | Six1-Eya2 inh | CtBP-E1A inh
CCOC(=O)[C@]12CCCC=C1N(Cc1cccc3ccccc13)C(=O)[C@H](CC(=O)N1CCN(C(=O)c3ccco3)CC1)C2 | 11 | 23
COc1ccc(C(C(=O)NC(C)(C)C)n2c(COc3ccc(C)cc3)nc3ccccc32)cc1 (stereo not given) | -10 | 3
O=C1NC[C@@H](CCCCN2CCN(CCC3CCCCC3)C(=O)C2=O)N(CC2CCCCC2)C1=O | -2 | -1

The list goes on:
Structure | Six1-Eya2 inh | CtBP-E1A inh
Cc1cc2nc(-c3ccc(F)cc3)c(Cc3ccsc3)n2c(C)c1Br | 1 | -1
COc1ccc(C2=Nc3ccccc3N(C(=O)c3ccc4c(c3)OCO4)C2C(=O)NCc2ccccc2)cc1 (stereo not given) | -5 | -2
COC(=O)[C@@]12C[C@@H](CC(=O)NCc3ccc(C)o3)C(=O)N(CCc3ccc(OC)c(OC)c3)C1=CCC(C)(C)C2 | 3 | -1
CC(C)C[C@H]1CN([C@@H](Cc2ccccc2)CN2CCCC2CN2C(=S)NC[C@@H]2Cc2ccccc2)C(=S)N1CC1CCCCC1 (stereo not given in full) | -3 | -7
Cc1ccc(S(=O)(=O)N[C@@H](C)CO)cc1 | 9 | 7
Cc1ccc(S(=O)(=O)C[C@@H]2OC[C@H](CO)N2S(=O)(=O)c2ccc(C)cc2)cc1 | 6 | -3
COC(=O)/C=C1\OCc2ccccc21 | -4 | 4
CC(C)(C)NC(=O)C(c1ccncc1)n1c(=O)c(-c2ccccc2)nc2ccccc21 (stereo not given) | 7 | 0
COc1cccc(-c2nc(-c3cccc(C)c3)nc3cc(Cl)ccc23)c1 | 3 | 5
COC(=O)[C@@]12C[C@@H](CC(=O)NCc3ccccc3)C(=O)N(CCc3ccc(OC)c(OC)c3)C1=CCC(C)(C)C2 | -2 | -19
CN1CCN(C(=O)C[C@@H]2CC[C@@H]3[C@H](COC[C@@H](O)CN3Cc3cccc(Cl)c3)O2)CC1 | 2 | 6
CCCCNC(=O)C[C@@H]1C[C@@]2(C(=O)OC)CCCCC=C2N(Cc2ccc(Cl)cc2Cl)C1=O | -2 | 0
COc1cc(C(=O)C(=O)N2CCN(c3ccc(C)cc3)CC2)cc2ccccc12 | -23 | -12
Nc1[nH]c(C(=O)c2ccccc2)c(-c2ccccc2C(F)(F)F)c1C(=O)c1cccs1 | 1 | -25
O=C(NC1CCCCC1)C1c2ccccc2OCC(=O)N1Cc1ccc2c(c1)OCO2 (stereo not given) | 6 | -1
CO[C@@H]1CN(C)C(=O)c2ccc(NC(=O)c3ccccc3F)cc2OC[C@@H](C)N(CC2CCOCC2)C[C@@H]1C | 5 | 3
Cc1cc(Br)cn2c(Cc3ccsc3)c(-c3cccc(Br)c3)nc12 | -2 | 2
COC(=O)c1ccc2nc(-c3ccc(F)cc3)c(Cc3ccc(C)cc3)n2c1 | 13 | 7
CCOC(=O)[C@]12CCC=C1N(Cc1ccccc1)C(=O)[C@H](CC(=O)NCc1ccccc1)C2 | 2 | -3
CCOC(=O)[C@]12CCCC=C1N(Cc1ccc3c(c1)OCO3)C(=O)[C@H](CC(=O)NCc1ccc(OC)c(OC)c1)C2 | -13 | 4
CCC(C(=O)Nc1c(C)cccc1C)n1c(-c2cnc(C)cn2)nc2ccccc21 (stereo not given) | -3 | -1
CCCCCCCCN1C(=O)[C@H](CC(=O)N2CCN(C(=O)C3CC3)CC2)C[C@@]2(C(=O)OC)CCCCC=C12 | -1 | 7
CC(C)(C)NC(=O)C(c1ccc(-c2ccccc2)cc1)n1c(=O)c(-c2ccco2)nc2ccccc21 (stereo not given) | -3 | 7
COc1ccc(C(C(=O)NCc2ccccc2)n2c(-c3ccncc3)nc3ccccc32)cc1 (stereo not given) | -1 | -14
CC(C)C[C@H]1CN(CCCC[C@H]2CNC(=O)C(=O)N2Cc2ccccc2)C(=O)C(=O)N1Cc1ccccc1 | -3 | -8
CCOC(=O)N1CCN(C(c2ccnc3ccccc23)c2nnnn2-c2ccc3c(c2)OCCO3)CC1 (stereo not given) | -4 | 5
COC(=O)C1=CN(c2c(C)cc(C)cc2C)C(N)=C(C#N)C1c1cccc(F)c1 (stereo not given) | -18 | 3
CCCNC(=O)N[C@H]1C=C[C@H](CC(=O)NC2CCCCC2)O[C@@H]1CO | 7 | -1
Cc1cccc(C)c1-n1nnnc1C1(C)CCC(=O)N1CCCn1ccnc1 (stereo not given) | 5 | 5
O=C(OCCO)c1c(-c2ccccc2)oc2c1C(OCCO)CCC2 (stereo not given) | 1 | 0
O=C1OCCOC2CCCc3oc(-c4ccccc4)c1c32 (stereo not given) | -11 | -10
CCCCCCCCN1C(=O)[C@H](CC(=O)NCCCN2CCCC2=O)C[C@@]2(C(=O)OC)CC(C)(C)CC=C12 | -6 | -4
CC(C)C[C@H]1COc2cc(N3CC[C@@H](O)C3)ccc2S(=O)(=O)N1 | -2 | 1
Nc1[nH]c(C(=O)c2ccccc2)c(-c2cccnc2)c1C(=O)NC1CCCCC1 | -6 | -3
C#CCNC(=O)C[C@@H]1C[C@@]2(C(=O)OCC)CCCC=C2N(CCCCCCCC)C1=O | -5 | 0
CCOC(=O)[C@]12CCC=C1N(Cc1ccco1)C(=O)[C@H](CC(=O)NCc1cccs1)C2 | -8 | 5
O=C1NC[C@H](c2ccccc2)N(CCCCC2CCCCC2)C1=O | 8 | 10
CO[C@H]1CN(C)C(=O)c2ccc(NC(=O)C3CCC3)cc2OC[C@H](C)N(CC2CCCCC2)C[C@@H]1C | -6 | 1
O=C(NCc1ccccc1)C1C(c2ccc3c(c2)OCO3)=Nc2ccccc2N1C(=O)c1ccco1 (stereo not given) | -14 | 0
CN(C)C1CN(Cc2cn(Cc3cccc(C(F)(F)F)c3)nn2)S(=O)(=O)C1 (stereo not given) | -4 | 11
